LASV entry inh: qHTS for Inhibitors of binding or entry into cells for Lassa Virus. Potency, µM (series often up to 37.9 µM), inactives show at the highest dose activity change, negative = inhibition, usual class: inhibitors. Lassa virus pseudotype entry inhibition, cell reporter; control for the full effect not named in the record. AID 540256, 2011. actives 1.2% (n = 300,000); active means well fitted inhibition curve with a large enough effect; inconclusive means small, poorly fitted or top-dose-only effect, or effect the other way; inactive means flat fitted curve, though single readings scatter; tested in HEK293 cells; note: % is set by controls: 0 for no effect and ±100 for the full control effect; nearly all actives have a fitted effect of over 50% in size; luciferase read-out
SARS PLpro yeast: qHTS of Yeast-based Assay for SARS-CoV PLP; Potency, µM (top dose mostly 32.9 µM), for inactives: at the top dose activity, positive = growth rescue; S. cerevisiae expressing SARS-CoV PLpro, growth rescue; control for the full effect not named in the record; AID 485353, 2010; actives 0.19% (n = 330,000); note: 0% is about no effect; nearly all actives have a fitted effect of over 55% in size; growth read by luminescence after 48 h
StopGo reporter: High Throughput Screening for Foot and Mouth Disease Virus Antivirals; human cells with a luciferase reporter of 2A StopGo recoding; control for the full effect not named in the record; actives 1.2% (n = 410,000); Potency, µM (top dose mostly 57.9 µM), for the others: top-dose signal change, negative = less light; AID 1159524, 2015; active = well fitted falling curve with a large enough effect; inconclusive = small, poorly fitted or top-dose-only effect; inactive = no such curve, though single readings can be large or run the other way; tested in HEK293T cells; note: % is set by controls: 0 for no effect and ±100 for the full control effect; nearly all actives have a fitted effect of over 45% in size; luciferase light after 4 h
Cruzain noTriton: qHTS Assay for Promiscuous and Specific Inhibitors of Cruzain (without detergent) | Potency, µM, inactives show max response, negative = inhibition, actives largely listed as inhibitors | AID 1476, 2009 | Cruzipain (Trypanosoma cruzi), P25779 | purified cruzain, Z-FR-AMC fluorescence, no detergent | actives 2.3% (n = 200,000); active = well fitted curve in the direction sought with a large enough effect; inconclusive = small, poorly fitted or top-dose-only effect, or another doubt; inactive = no such curve, though single readings can be large; an effect the other way counts as inactive or inconclusive;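 note: plate controls were enzyme without inhibitor for no effect and buffer without enzyme for full effect; nearly all actives have a fitted effect of over 40% in size; top concentration of the series not given in the record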
Target sequence (P25779 123-467 limits assumed): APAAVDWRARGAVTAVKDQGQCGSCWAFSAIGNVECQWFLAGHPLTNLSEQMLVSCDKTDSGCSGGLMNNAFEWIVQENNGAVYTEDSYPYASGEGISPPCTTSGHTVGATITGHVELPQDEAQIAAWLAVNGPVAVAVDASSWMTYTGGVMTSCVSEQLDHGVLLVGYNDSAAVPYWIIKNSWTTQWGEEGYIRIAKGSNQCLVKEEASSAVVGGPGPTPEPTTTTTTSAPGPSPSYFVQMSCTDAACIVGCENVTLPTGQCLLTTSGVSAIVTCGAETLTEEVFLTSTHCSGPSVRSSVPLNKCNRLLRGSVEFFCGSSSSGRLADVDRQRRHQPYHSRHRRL
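Detergent-free condition (0.00005% Triton X-100) in acetate buffer pH 5.5 with DTT. 1.5 nM enzyme and compound were pre-mixed 15 min, then 2 uM Z-FR-AMC substrate added; reaction progress from fluorescence change between first and third reads (60 s).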
Cruzain inh Det: qHTS Assay for Promiscuous and Specific Inhibitors of Cruzain (with detergent); purified cruzain, Z-FR-AMC fluorescence, 0.01% Triton; Potency, µM, for the others: max response, negative = inhibition, actives largely listed as inhibitors; actives 0.43% (n = 200,000); AID 1478, 2009; active = well fitted curve in the direction sought with a large enough effect; inconclusive = small, poorly fitted or top-dose-only effect, or another doubt; inactive = no such curve, though single readings can be large; an effect the other way counts as inactive or inconclusive;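 note: plate controls were neutral wells for no effect and buffer without enzyme for full effect; nearly all actives have a fitted effect of over 40% in size; top concentration of the series not given in the record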
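Z-FR-AMC hydrolysis (2 uM substrate) by cruzain (1.5 nM) monitored kinetically at ex 360/em 450 nm after 15 min room-temperature compound exposure; 0.01% Triton X-100, pH 5.5, 5 mM DTT.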
RE007 growth inh: qHTS Assay for Inhibitors of the HIV-1 protein Vpr | S. pombe RE007 Vpr strain, BacTiter-Glo ATP luminescence, 24 h; control for the full effect not named in the record | Potency, µM (top dose mostly 92.2 µM), for the others: at the highest dose activity change, negative = less growth | actives 0.21% (n = 360,000) | AID 651644, 2012; active = well fitted falling curve with a large enough effect; inconclusive = small, poorly fitted or top-dose-only effect; inactive = no such curve, though single readings can be large or run the other way;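 note: % is set by controls: 0 for no effect and ±100 for the full control effect; nearly all actives have a fitted effect of over 50% in size; the assay follows cell death caused by Vpr and the record does not say whether a fall means rescue or toxicity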
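Fission yeast RE007 carrying one integrated HIV-1 vpr copy, seeded at OD 0.01 in PMG+AL medium with 23 nL pinned compound. Grown 24 h at 30 degrees; viability read by BacTiter-Glo luminescence after 5 min.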
NS1 inh: qHTS Assay for Inhibitors of Influenza NS1 Protein Function; S. cerevisiae slowed by influenza A NS1, growth recovery by OD600; actives 0.4% (n = 270,000); Potency, µM (doses to about 46.1 µM), without a hit: at the top dose activity, positive = more growth; note: actives are rising curves; nearly all actives have a fitted effect of over 50% in size
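Compounds were scored for reversing the slow growth caused by influenza A NS1 in S. cerevisiae, measured by optical density at 600 nm. Assay medium contained 2% galactose at pH 6.0; NS1-free yeast of the same strain were the positive control.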
MARV entry inh: qHTS for inhibitors of binding or entry into cells for Marburg Virus. Marburg virus pseudotyped entry inhibition, cell reporter; control for the full effect not named in the record; about a third of the inactives were read at about 46 µM. Potency, µM (titrated, usually from 37.8 µM), inactives show top-dose activity change, negative = inhibition, hits mostly inhibitors. actives 1.8% (n = 300,000). AID 540276, 2011; active = well fitted inhibition curve with a large enough effect; inconclusive = small, poorly fitted or top-dose-only effect, or effect the other way; inactive = flat fitted curve, though single readings scatter; tested in HEK293 cells; about a fifth of its hits are not listed in these tables; note: % is set by controls: 0 for no effect and ±100 for the full control effect; luciferase read-out
Numbers without * were called inactive; ? = inconclusive; . = no result given; [ ] = another dose, or the depositor's remark. Unless noted, calls come from the whole dose curve; as a rule, active means well fitted rising curve with a large enough effect; inconclusive means small, poorly fitted or top-dose-only effect; inactive means no such curve, though single readings can be large or run the other way. Potency is the fitted concentration of half-maximal effect. Random draw from the library; overall some 4.5% were active at least once.

SMILES	LASV entry inh	SARS PLpro yeast	StopGo reporter	Cruzain noTriton	Cruzain inh Det	RE007 growth inh	NS1 inh	MARV entry inh
O=C(N/N=C/c1cc(Br)c(Br)o1)c1cc2ccccc2o1	?	-9%	4%	.	.	-11%	6%	?
COc1ccc2[nH]cc(CCNC(=O)c3cnn(-c4ccc(C)cc4)c3C3CCN(C(=O)OC(C)(C)C)CC3)c2c1	?	.	?	-3%	-9.3%	.	.	.
Cc1cc(C)n(CC(=O)NCc2cc(-c3nn(C)c(=O)c4ccccc34)ccc2C)n1	-11%	-1%	0%	19%	5.5%	4%	8%	?
CCOC(=O)/C=C1/SCC(=O)N1CC(=O)c1ccc[nH]1	-4%[46.1 µM]	.	5%	.	.	-18%	.	25%[46.1 µM]
COC(=O)c1sc(-c2ccccc2)cc1NC(=O)c1cccc(F)c1	2%[46.1 µM]	.	-7%	11%	-1.6%	.	.	-30%[46.1 µM]
CCC(C)(C)NS(=O)(=O)c1cc(-c2cc(C)no2)ccc1C	-2%[46.1 µM]	.	48%[activator]	-9%	-1.9%	.	.	.
O=C(O)CN1C(=O)NC2(CCCc3ccccc32)C1=O (stereo not drawn)	11%	11%	10%	.	.	1%	2%	2%[46.1 µM]
CN1C(=O)CSc2ccc(NC(=O)NCc3ccco3)cc21	?	-3%	.	-7%	-1.9%	10%	0%	-18%
Cc1c(-n2cc(C(=O)c3ccccc3O)cc(C#N)c2=O)c(=O)n(-c2ccccc2)n1C	12%	-3%	-6%	-7%	-8.6%	8%	7%	10%
Cc1ccc(NC(=O)c2ccc(NCc3ccc(F)cc3)nc2)cc1	8%	0%	5%	.	.	2%	-4%	21%[46.1 µM]
CCn1cc(CN2CCCC(C(=O)c3ccc(-c4ccccc4)c(F)c3)C2)cn1 (stereo not drawn)	-2%	0%	-23%	.	.	-12%	-5%	?
CCOC(=O)N1CCc2c(sc3c2c(=O)n(Cc2ccccc2)c(=O)n3CC(=O)Nc2c(C)cccc2C)C1	4%[46.1 µM]	.	0%	-9%	2.3%	.	.	?
CCOC(=O)c1[nH]c2cc(OC)c(OC)cc2c1NC(=O)CCN1CCSCC1	1%	0%	-12%	.	.	2%	1%	26%
CCCCn1c(N)c(N(Cc2ccccc2OC)C(=O)CSCC(=O)Nc2ccc(C)cc2)c(=O)[nH]c1=O	-10%	.	0%	.	.	9%	.	-9%
COC(=O)c1ccc(COc2ccccc2/C=N/NS(=O)(=O)c2ccccc2)cc1	-29%	-4%	4%	-22%	1.1%	-10%	-14%	13µM*
Cc1onc(-c2c(Cl)cccc2Cl)c1C(=O)N1CCc2ccccc2C1	-22%	0%	0%	-4%	0.7%	9%	-18%	?
O=C(c1ccccc1)c1c[nH]c2cc3c(cc2c1=O)OCCO3	23%	5%	26%	10%	-4.9%	-4%	-3%	?
COc1ccccc1-c1nc2c(c(SCC(=O)Nc3ccccc3F)n1)Cc1c(CO)cnc(C)c1O2	1%[46.1 µM]	.	-21%	1%	-6.7%	.	.	.
CC(=O)c1ccc(NC(=O)C2CCCN(S(=O)(=O)c3cccc4nonc34)C2)cc1 (stereo not drawn)	1%	-6%	-12%	.	.	-14%	8%	-6%[46.1 µM]
CCn1c(SCc2ccccc2)nc2c1c(=O)[nH]c(=O)n2C	.	?	6%	.	.	2%	-2%	.
COc1ccc([N+](=O)[O-])cc1NC(=O)CSc1nncn1-c1ccccc1	2%	-11%	-24%	-12%	-4.6%	6%	21%	16%[46.1 µM]
C/C(=N\Nc1nncc2ccccc12)c1ccc(OCC(=O)N(C)C)cc1	-1%[46.1 µM]	0%	7%	.	.	4%	-11%	3%[46.1 µM]
O=C(N1CCOCC1)N1CCN(S(=O)(=O)c2ccc(F)cc2)CC1	.	3%	-15%	.	.	11%	-7%	.
O=C(Nc1cccn2ncnc12)C(F)(F)F	-1%	3%	-17%	.	.	-3%	.	?
Cc1cccc(C)c1NC1=NC(C)(C)N=C(N)N1	?	17%	-2%	-9%	-0.4%	-11%	1%	3%[46.1 µM]
Going on with the list.
SMILES	LASV entry inh	SARS PLpro yeast	StopGo reporter	Cruzain noTriton	Cruzain inh Det	RE007 growth inh	NS1 inh	MARV entry inh
COc1ccc(S(=O)(=O)N2CCCCCC2)cc1C(=O)N(C)CC(=O)Nc1c(Cl)cccc1Cl	11%	2%	-11%	.	.	4%	.	-9%
CC(C)Cn1c(N)c(C(=O)COC(=O)c2ccncc2)c(=O)n(C)c1=O	5%	-10%	-3%	-4%	1.9%	-4%	-5%	5%[46.1 µM]
Nc1ccc(C(=O)N/N=C\C=C\c2ccc([N+](=O)[O-])cc2)cc1	9%[46.1 µM]	-2%	-4%	.	.	-15%	.	-2%[46.1 µM]
CCN(c1ccccc1)S(=O)(=O)c1nnc(NC(=O)c2cccs2)s1	?	.	61%[activator]	-7%	-5.2%	.	.	.
O=C(C[n+]1cccc(NC(=O)c2ccccc2)c1)c1ccc(NC(=O)c2ccccc2)cc1	3%	5%	2%	-12%	-20%	18%	?	16%
CCN(CC)C(=O)c1sc2c(c1C)c(=O)n(Cc1ccccc1)c(=O)n2CC(=O)Nc1ccc(OC)cc1	-27%[46.1 µM]	.	8%	?	-2.4%	.	.	.
O=C(COc1ccc(F)cc1)Nc1nnc(SCc2cc(=O)n3ccccc3n2)s1	1%[46.1 µM]	.	-20%	1%	1.5%	.	.	.
O=[N+]([O-])c1ccc(NC2CCCC2)c2ccncc12	-15%	-12%	-22%	.	.	-9%	-7%	?
Cc1ccc(NC(=O)CSc2nnc(-c3cccnc3)n2-c2ccc(C)cc2)cc1	-14%	-12%	-6%	?	-2.7%	-15%	9%	0%
CC(=O)Nc1cccc(C(=O)OCc2ccc(C(=O)Oc3ccc(Cl)cc3)cc2)c1	-8%	?	7%	16%	-1.1%	4%	4%	-25%
O=C(Nc1ccccc1)C1=C[C@@H](c2ccc(Br)cc2)C[C@@H](OCCCCO)O1	.	-4%	39%[activator]	.	.	-5%	-7%	.
CCCCCc1ccc(CC(=O)N2CCOCC2)cc1	.	-1%	-1%	.	.	14%	-4%	.
COc1ccccc1C(=O)OCC(=O)Nc1cccc(S(=O)(=O)N2CCCC2)c1	8%	-2%	?	.	.	-9%	.	-16%
O=S(=O)(/C=C/c1cccc(Br)c1)N1CCOCC1	.	1%	-5%	.	.	-3%	-3%	.
CCCCCC(=O)Nc1cccc(C2=NOC3(C2)C[C@@H](C(N)=O)N(C(=O)c2ccc(Cl)cc2)C3)c1 (stereo partly drawn)	.	0%	-4%	.	.	8%	-4%	-4%
Cc1csc(NC(=O)c2ccc(S(=O)(=O)N3CCN(C)CC3)cc2)n1	14%[46.1 µM]	3%	27%	.	.	-15%	6%	8%[46.1 µM]
CC(C)CNC(=O)N1c2ccccc2Sc2ccccc21	?	1%	-10%	.	.	-10%	-11%	?
COc1cc(OC)cc(C(=O)NCC(=O)OCC(=O)c2cc(OC)ccc2OC)c1	1%	4%	-1%	0%	-17%	-17%	-6%	2%
COc1cccc(N2CCN(C(=O)c3cc4c(s3)-c3ccccc3OC4)CC2)c1	.	-7%	?	-16%	0.1%	4%	-6%	27%[46.1 µM]
Cc1ccccc1OC(C)C(=O)Nc1ccc2c(c1)OCO2 (stereo not drawn)	.	1%	-10%	.	.	-1%	-29%	.
CC(=O)Nc1ccc(S(=O)(=O)N(C)C2CCN(C)CC2)cc1	2%	5%	-11%	.	.	0%	9%	-8%
COc1ccc(CCc2cc(OC)c(OC)c(OC)c2)cc1	?	.	?	.	.	1%	.	?
COc1cccc(C(c2sc3nc(-c4ccco4)nn3c2O)N2CCC3(CC2)OCCO3)c1 (stereo not drawn)	2%[46.1 µM]	.	2%	?	-2.6%	.	.	.
COc1ccccc1CCC(=O)Nc1cccc(S(=O)(=O)N2CCOCC2)c1	-2%	1%	9%	.	.	8%	11%	?
CC(C)c1cc(N=NC(N)=O)cc(C(C)C)c1O	.	-1%	10%	.	.	-8%	-3%	.
Next entries follow:
SMILES	LASV entry inh	SARS PLpro yeast	StopGo reporter	Cruzain noTriton	Cruzain inh Det	RE007 growth inh	NS1 inh	MARV entry inh
COc1cccc(C(=O)N2CCN(c3ncccn3)CC2)c1	0%	25%	-2%	4%	-0.2%	-4%	1%	-3%
N=c1n(CCCOc2ccc(Br)cc2)c2ccccc2n1CC(N)=O	.	1%	-1%	.	.	-7%	0%	3%
COCCCN(C(=O)CCOc1ccccc1C)c1c(N)n(Cc2ccccc2)c(=O)[nH]c1=O	-15%	3%	16%	.	.	0%	.	-16%[46.1 µM]
Cc1cccc(NC(=O)C2CCN(S(=O)(=O)c3ccc4c(c3)CCCN4C(=O)C3CCC3)CC2)c1	?	.	-22%	12%	-3.2%	.	.	.
CCOC(=O)C1CCN(c2ccc(C(N)=O)cc2[N+](=O)[O-])CC1	23%	0%	-7%	3%	-4.4%	-18%	-2%	?
CN(Cc1ccccc1)Cc1nc2c(c(=O)n(C)c(=O)n2C)n1Cc1ccc(F)cc1	-28%	-3%	?	?	0.2%	-2%	-81%	-8%
CN(C(=O)c1cc(C(=O)N(C)c2ccccc2)cc([N+](=O)[O-])c1)c1ccccc1	.	7%	-19%	.	.	3%	1%	.
COc1cc(Cl)c(NS(=O)(=O)c2c(C(=O)N3CCCC3)c(C)n(C)c2C)c(OC)c1	-9%[46.1 µM]	-3%	6%	.	.	0%	1%	21%[46.1 µM]
CC(O)(C#CCN1CCOCC1)c1ccccc1 (stereo not drawn)	?	-4%	0%	-5%	2.5%	3%	1%	?
Cc1ccc2nc(-c3ccc(-c4ccccn4)s3)cn2c1	?	-6%	-24%	.	.	-28%	-64%	?
CCCCCCOc1ccc(C(CC(=O)O)C(N)=O)cc1 (stereo not drawn)	-13%	-3%	-11%	4%	-2.5%	-2%	10%	18%
CCN(CC)c1ccc(/C=C/c2ccc3ccc(OC)cc3[n+]2CC)cc1	.	-12%	7.9µM*	.	.	?	-68%	.
O=C(N/N=C/c1c[nH]c2ccccc12)c1cc2ccccc2o1	.	-7%	34%[activator]	.	.	-9%	2%	.
Cc1cccc(-n2c(/C=C/c3c(C)[nH]c4ccccc34)nc3ccccc3c2=O)c1	3%[46.1 µM]	.	-20%	-3%	0.4%	.	.	.
CC(NC(=S)Nc1ccc(F)cc1)c1ccccc1 (stereo not drawn)	0%	0%	-2%	.	.	-9%	-5%	-1%

Screens from PubChem.
